YopH PTP inh: YopH tyrosine phosphatase inhibitors, primary screen, biochemical, fluorescence Ex485/Em525; inhibition, %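 (about 10 µM by stock and volumes)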; AID 898, 2007; hit rate 0.16% among 140,000;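 active = inhibition of 50% or more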;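 note: controls were vehicle for no effect and minimum signal wells for full effect; inactives centre near -20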
Mtb growth: M. tuberculosis H37Rv growth inhibitors, H37Rv strain (AID 1626). hit rate 0.95% among 220,000. M. tuberculosis H37Rv growth inhibition; higher % means a stronger effect. inhibition, % at 10 µM; hits with a dose series show IC50 in µM;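 active = confirmed in a dose series; inconclusive = inhibition above 80% but not taken into the dose series; inactive = below 80% or under 30% at every dose of the series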;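 note: bacteria incubated seven days before Alamar blue readout; 0% = bacteria only wells and 100% = bacteria with antibiotic wells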
Mtb bLac sens: beta-lactam sensitization of Mtb H37Rv, H37Rv; inhibition, % at 25 µM; hit rate 0.27% among 330,000; M. tuberculosis H37Rv growth with meropenem, percent inhibition; hits of this screen are not shown here;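 active = about 74% or more and at least 40 points above the plate without the antibiotic, then above 30% in a dose series; inconclusive = first-round hits that could not be retested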;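 note: growth measured after seven days incubation then overnight dye step; 0% = bacteria only wells and 100% = bacteria with antibiotic; twin plates without the antibiotic show which effects depend on it; some results filed as inactive read as strong as hits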
RecA splice inh: Mtb RecA intein splicing inhibitors, primary screen, biochemical, fluorescence, HTS; hit rate 0.75% among 290,000; Protein RecA (Mycobacterium tuberculosis (strain ATCC 25618 / H37Rv)), P9WHJ3; inhibition, %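 (about 9 µM by stock and volumes)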; cell-free RecA intein splicing; in the data active = inhibition above about 30%; inconclusive = no clear call, values can overlap the other calls;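 note: 0% = vehicle wells and 100% = reference inhibitor control wells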
Target sequence (P9WHJ3 whole entry, looked up, canonical isoform): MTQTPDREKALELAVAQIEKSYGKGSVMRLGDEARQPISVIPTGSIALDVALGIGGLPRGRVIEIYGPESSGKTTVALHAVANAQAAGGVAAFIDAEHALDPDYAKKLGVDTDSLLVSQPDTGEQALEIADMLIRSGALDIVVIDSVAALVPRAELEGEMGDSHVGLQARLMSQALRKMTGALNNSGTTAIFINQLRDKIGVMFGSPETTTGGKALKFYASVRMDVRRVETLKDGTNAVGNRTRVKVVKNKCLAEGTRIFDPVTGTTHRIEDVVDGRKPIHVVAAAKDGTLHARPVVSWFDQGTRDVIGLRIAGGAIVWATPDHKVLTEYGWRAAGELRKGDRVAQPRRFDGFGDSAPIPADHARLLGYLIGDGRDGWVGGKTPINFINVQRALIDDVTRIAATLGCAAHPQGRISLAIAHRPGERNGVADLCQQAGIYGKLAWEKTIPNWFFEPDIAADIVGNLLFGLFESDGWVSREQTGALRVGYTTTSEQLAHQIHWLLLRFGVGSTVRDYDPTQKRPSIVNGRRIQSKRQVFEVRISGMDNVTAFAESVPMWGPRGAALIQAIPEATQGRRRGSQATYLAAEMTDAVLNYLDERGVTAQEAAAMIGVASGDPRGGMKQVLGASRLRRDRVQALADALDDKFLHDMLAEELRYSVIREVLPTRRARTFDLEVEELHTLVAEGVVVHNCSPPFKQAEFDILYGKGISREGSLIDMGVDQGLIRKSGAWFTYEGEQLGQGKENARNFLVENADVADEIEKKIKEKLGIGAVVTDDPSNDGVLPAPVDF
Arbovirus anti: antivirals against arbovirus infection, primary screen, cell-based, full library, 10K replicate subset | arbovirus infection cell-based antiviral screen | inhibition, % at 10 µM | hit rate 0.37% among 200,000;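 active = inhibition from about 30%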;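 note: bluetongue infection of BSR cells; cell survival read as ATP light after 72 h; 0% = infected wells without compound and 100% = uninfected wells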
Arbovirus anti repeat: also measured in Arbovirus anti; calls as there; inhibition, %; measured here: 10K subset replicate screen; many hits read low in the repeat;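 first of two repeat runs on a subset; 0% = infected and 100% = uninfected wells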
* hit, by the source's call; ? = inconclusive; . = not tested or not shown; & = joins results of further samples. Some of the compounds tested; the hit share may differ from the screen's.

SMILES	YopH PTP inh	Mtb growth	Mtb bLac sens	RecA splice inh	Arbovirus anti	others
O=S(=O)(c1ccccc1)N1CCSC1c1ccco1 (centres undefined)	30.7	-8.9%	.	4.2	-4.9
CC(NC(=O)C(=S)N1CCN(C)CC1)c1ccccc1 (centres undefined)	.	-0.2%	-4.8	-0.8	2.9
Cc1ccc(S(=O)(=O)N2CCN(C(=O)Cc3ccsc3)CC2)c(C)c1	.	.	-5.8	1.0	.
COC(=O)Oc1cncc(C(=O)O)c1	-21.8	-8.3%	-8.2	1.4	3.0
O=C1CCc2cc(S(=O)(=O)NC3CCCCC3)cc3c2N1CC3	.	.	-14.8	1.4	.
CC1=C(C(=O)Nc2ccccc2)C(c2cccnc2)n2nc(-c3cccnc3)nc2N1 (centres undefined)	-42.6	-2.0%	-3.7	-2.9	-2.8
CN(c1ccccc1)S(=O)(=O)c1cccc(NC(=O)CSc2ncc(C(F)(F)F)cc2Cl)c1	-4.4	-1.6%	-7.5	-1.4	8.2
COc1ccc(/C=C/C(O)=C(\C#N)c2nnc(N3CCOCC3)n2-c2ccccc2)cc1OC	.	0.1%	4.8	0.9	4.8
Cc1ccc(OCCC(=O)O)cc1	.	0.5%	-2.8	-5.4	.
CC(=O)N1c2ccccc2NC2=C(C(=O)CCC2)C1c1ccc(F)cc1 (centres undefined)	-7.2	-8.9%	11.8	0.4	-3.1
Cc1cc(C)cc(NC(=O)C2CCCN2S(=O)(=O)c2ccc3c(c2)C(C)(C)C(=O)N3C)c1 (centres undefined)	.	.	?	2.6	.
O=C(CCC(=O)c1ccc(Oc2ccccc2)cc1)Nc1cccc(Cl)c1	-2.8	-2.0%	-0.2	-1.9	3.4

At a glance, some entries already given.
SMILES	YopH PTP inh	Mtb growth	Mtb bLac sens	RecA splice inh	Arbovirus anti	others
Cc1ccc(S(=O)(=O)N2CCN(C(=O)Cc3ccsc3)CC2)c(C)c1	.	.	-5.8	1.0	.
COC(=O)Oc1cncc(C(=O)O)c1	-21.8	-8.3%	-8.2	1.4	3.0

Structures above that have sulfur (6):
SMILES	YopH PTP inh	Mtb growth	Mtb bLac sens	RecA splice inh	Arbovirus anti	others
O=S(=O)(c1ccccc1)N1CCSC1c1ccco1 (centres undefined)	30.7	-8.9%	.	4.2	-4.9
CC(NC(=O)C(=S)N1CCN(C)CC1)c1ccccc1 (centres undefined)	.	-0.2%	-4.8	-0.8	2.9
Cc1ccc(S(=O)(=O)N2CCN(C(=O)Cc3ccsc3)CC2)c(C)c1	.	.	-5.8	1.0	.
O=C1CCc2cc(S(=O)(=O)NC3CCCCC3)cc3c2N1CC3	.	.	-14.8	1.4	.
CN(c1ccccc1)S(=O)(=O)c1cccc(NC(=O)CSc2ncc(C(F)(F)F)cc2Cl)c1	-4.4	-1.6%	-7.5	-1.4	8.2
Cc1cc(C)cc(NC(=O)C2CCCN2S(=O)(=O)c2ccc3c(c2)C(C)(C)C(=O)N3C)c1 (centres undefined)	.	.	?	2.6	.

Next section:
SMILES	YopH PTP inh	Mtb growth	Mtb bLac sens	RecA splice inh	Arbovirus anti	others
O=C(c1ccc(F)cc1)N1CCOCC1	.	-3.8%	-2.7	-1.5	-1.0
COc1ccc(N(CC(=O)Nc2cc(C)ccc2C)S(=O)(=O)c2c(C)nn(C)c2C)cc1	-32.0	.	-5.4	0.6	-0.6	Arbovirus anti repeat=9.5
O=C(Cn1nnc(-c2ccccc2)n1)NNC(=O)c1ccc(Br)cc1	.	4.4%	3.5	0.3	-2.5
CN(C)CCN(C(=O)c1cccc(Cl)c1)c1nc2c(Cl)cccc2s1	-12.7	1.1%	6.9	17.0	-7.6
COC(=O)C(O)(CC(=O)Nc1ccccc1OC)C(F)(F)F (centres undefined)	-35.6	-3.6%	-0.5	-0.7	3.9
CN(C(=O)c1cccs1)c1ccc(OCC(=O)N2CCC(C(N)=O)CC2)cc1	.	0.2%	-3.2	.	1.1
COc1cccc(OCCOCCOc2ccc(C)cc2[N+](=O)[O-])c1	-5.8	10.7%	1.4	0.8	-0.7
CCCCn1c(N)c(N(Cc2ccccc2OC)C(=O)c2cc(=O)[nH]c3ccccc23)c(=O)[nH]c1=O	.	.	-0.6	0.7	.
Cc1ccc(S(=O)(=O)N2CCOCC2)cc1C(=O)NNC(=O)c1ccoc1C	.	-8.1%	-5.5	0.2	11.7
Cc1ccc([N+](=O)[O-])c(OCCCNCC(C)O)c1 (centres undefined)	.	-5.5%	11.4	0.0	-3.6
CCc1cc(C(=O)NC2CCCN(Cc3ccccc3F)C2)n(C)n1 (centres undefined)	.	.	-1.5	1.7	.
CCc1cc(-c2n[nH]c(C)c2-c2nc3ccccc3n2C)c(O)cc1O	.	-3.1%	-11.1	-0.9	-13.5
CCOC(=O)c1cccc(C(=O)Oc2ccccc2)n1	-10.6	4.0%	0.1	3.1	-3.0
Cc1ccc(NC(=O)Nc2ccnc(-c3cccnc3)n2)cc1	.	-0.7%	7.2	1.4	20.4
CCCCCCSc1cc(C)nc2ncnn12	-23.9	1.3%	-2.4	0.9	4.2	Arbovirus anti repeat=3.5
CC(=O)c1cc2c(cc1N/C(=N/S(=O)(=O)c1ccccc1)c1ccc(Cl)cc1)OCO2	-25.3	-10.4%	4.2	-30.9	-4.7
CC1CC(C)CN(C(=O)c2ccc3ccccc3c2)C1 (centres undefined)	.	.	8.1	3.6	.
O=C(COc1ccc(S(=O)(=O)N2CCCC2)cc1)NCC1CCCO1 (centres undefined)	.	.	-1.1	-1.4	0.7
Cc1ccc(C(=O)N/C(=C\c2cccs2)C(=O)NCCc2c[nH]c3ccccc23)cc1C	-21.8	-10.5%	-3.7	5.0	-15.5
Cc1ccc(NC(=O)c2cc(=O)[nH]c3ccccc23)cc1	.	.	-0.5	0.8	.
COc1ccc(NC2CCCN(C(=O)CCc3cccc(Cl)c3)C2)cc1 (centres undefined)	.	.	-4.1	-4.0	.
COc1ccccc1NC(=S)N1CCC(NC(=O)NC23CC4CC(CC(C4)C2)C3)CC1	-46.9	1.0%	4.4	0.7	-1.8
O=C(Nc1cccc(F)c1)c1ccc(S(=O)(=O)N2CCOCC2)cc1	-41.4	-7.2%	-4.7	-3.3	2.4	Arbovirus anti repeat=-1.9
CC(C)(C)c1cc(C(=O)NCc2cccnc2)ccn1	-44.1	-8.0%	7.8	1.6	-0.4
C/C(CCC12CC3CC(CC(C3)C1)C2)=N\NC(N)=S	-11.4	1.4%	0.3	0.7	-16.6
O=C(Cc1cccc2ccccc12)Nc1ccc(N2CCOCC2)cc1	.	4.6%	-4.7	8.7	-8.5
CCC(=O)c1ccc(O)c(OC)c1	.	-13.2%&-1.2%	-4.5	0.0	7.9	Arbovirus anti repeat=2.8
Cc1cccc(OCC(=O)NCC(=O)n2nc(C)cc2C)c1	-37.6	0.1%	-11.8	1.3	-4.2
Cc1ccc(C(=O)NC2CC3CCCC(C2)N3Cc2ccccc2)cc1 (centres undefined)	.	.	-7.4	1.7	.
CC(=O)C1=C(O)C(=O)N(c2cccc(C(=O)O)c2)C1c1ccccc1F (centres undefined)	-33.5	3.1%	.	.	0.0
COc1ccc(NC(=O)[C@@H](NC(=O)c2ccccc2F)C(C)C)cc1S(=O)(=O)N1CCOCC1	.	-4.0%	-6.2	0.7	16.0
Cc1ccc(N(C(=O)Cn2nnc(-c3ccc(F)cc3)n2)C(C(=O)NC(C)(C)C)c2ccncc2)cc1 (centres undefined)	.	-1.5%	5.5	8.8	-3.2
COc1ccc(/C(N)=N/OC(=O)CCCc2ccccc2)cc1OC	-18.2	9.8%	2.4	5.0	-13.8
Cc1noc(C)c1CSCC(=O)Nc1nnc(CC(C)C)s1	.	.	-16.1	0.6	.
COc1cc2c(cc1OC)-c1nncn1C(C)(C)C2	-46.6	-4.1%	-3.4	-3.1	3.0
CC12CN(NC(=O)c3ccc(Cl)cc3)C3(C#N)CC1CCC23C (centres undefined)	.	4.4%	-3.8	0.0	-3.0
COc1ccccc1N1CCN(C(=O)/C=C/c2ccco2)CC1	-17.7	-2.6%	9.2	0.4	2.6
CCCc1cc(=O)[nH]c(Nc2ccc(Cl)cc2)n1	.	3.1%	5.3	3.6	9.4
COc1ccc(S(=O)(=O)N2CCN(Cc3cc(OC)c(OC)cc3OC)CC2)cc1	.	.	2.1	0.2	.
CCN(CC(=O)NCCCN1CCOCC1)S(=O)(=O)c1ccc(Cl)cc1	.	.	-5.8	2.7	.
COC(=O)c1cc(NC(=S)N2CCN(C(=O)C3CCCO3)CC2)cc(C(=O)OC)c1 (centres undefined)	.	-1.5%	10.6	.	-2.3
COc1ccc(C2/C(=C(/O)c3ccc(Cl)cc3)C(=O)C(=O)N2CCN2CCOCC2)c(OC)c1 (centres undefined)	-38.6	.	51.8	2.1	7.2
CCCCn1c(N)c(N(CCOC)C(=O)c2sc3cc(F)ccc3c2Cl)c(=O)[nH]c1=O	.	.	-3.2	3.5	.
O=C(Nc1nccs1)c1ccc2c(c1)C(=O)N(Cc1cccnc1)C2=O	.	.	-4.7	-2.2	.
Cc1ccc(Cn2ccc(-c3cnc(-c4ccccc4)s3)n2)cc1	-27.1	10.7%	22.8	-2.4	-7.5
CCN1CCN(C(=O)CN(C)S(=O)(=O)c2ccc(Cl)cc2)CC1	-1.4	-4.7%	-3.1	0.3	1.4
Cc1ccc(CNc2ccc3c(c2)OCO3)cc1	-25.6	3.8%	93.3	11.6	-8.5
NC1=NC(=Nc2cccc(Cl)c2)c2ccccc21	-22.1	-5.8%	6.9	-0.9	1.8
COc1ccc(-n2nc3c(c2NC(=O)C(C)Cl)CSC3)cc1 (centres undefined)	.	.	3.2	10.2	.
CC1(C)CC(=O)C=C(Nc2ccc([N+](=O)[O-])cc2)C1	.	.	-5.1	1.7	.
COc1ccccc1CN1C[C@@H]2C[C@@H](c3cccc(O)c3)N3CCC[C@@]23C1=O	.	4.8%	-1.2	1.0	4.2
Cc1nc(C(=O)NNC(=O)Nc2ccccc2)cs1	.	-3.0%	-4.1	-0.4	.
CC(=O)Nc1cc(NC(C)=O)cc(C(=O)NC(C)(C)C)c1	-43.0	-4.8%	-2.2	-4.9	2.9
NC(=O)c1c(NC(=O)c2c(F)cccc2F)sc2c1CCN(Cc1ccccc1)C2	.	.	19.1	-20.4	.
COc1ccc(NC(=O)CSc2ncn[nH]2)c([N+](=O)[O-])c1	-28.1	-4.3%	-3.3	-0.6	15.6
O=C(COC(=O)c1ccc[nH]c1=O)Nc1cc(S(=O)(=O)N2CCCCC2)ccc1Cl	.	-4.6%	-2.6	0.0	1.8
O=C(C(Cc1ccccc1)n1cccc1)N1CCc2ccccc21 (centres undefined)	-24.3	7.7%	-0.7	0.2	1.2	Arbovirus anti repeat=-2.8
O=C(N/C(=C\c1ccc(Br)cc1)c1nc2ccccc2[nH]1)c1ccco1	-49.2	9.1%	-3.4	0.8	0.1
N#CC1=C(N)N2C(=C(C#N)C1c1ccccc1)Sc1ccccc12 (centres undefined)	-30.8	32.4%	4.2	-6.8	-8.8
Cc1nonc1C1CCCN1C(=O)c1cc(COc2cccc(C(F)(F)F)c2)on1 (centres undefined)	.	.	2.7	3.9	.
O=C1CCC/C(=N/Nc2ccc(Cl)cc2)C1	.	?	96.0	7.1	-20.2

Filtered by structure, those above containing a cyano group
SMILES	YopH PTP inh	Mtb growth	Mtb bLac sens	RecA splice inh	Arbovirus anti	others
COc1ccc(/C=C/C(O)=C(\C#N)c2nnc(N3CCOCC3)n2-c2ccccc2)cc1OC	.	0.1%	4.8	0.9	4.8
CC12CN(NC(=O)c3ccc(Cl)cc3)C3(C#N)CC1CCC23C (centres undefined)	.	4.4%	-3.8	0.0	-3.0
N#CC1=C(N)N2C(=C(C#N)C1c1ccccc1)Sc1ccccc12 (centres undefined)	-30.8	32.4%	4.2	-6.8	-8.8

Screens as filed in PubChem BioAssay.
